Methyltransferases: Primary Screen for Target Class Profiling of Small Molecule Inhibitors of Methyltransferases; purified enzyme, MTase-Glo SAH luminescence; stronger effect = lower value; 3.9% of 25,000 active; calls only at 40 µM; active = -50% or lower on at least one of six enzymes; inconclusive = the cases between; inactive = as a rule above -30% on all six;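 also: enzymes were COMT GAMT GNMT HNMT NNMT and PNMT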
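Each enzyme was reacted with SAM and its substrate, with compounds tested once at 40 uM; SAH formed was read by MTase-Glo luminescence.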
Calls only; i = inactive; ? = inconclusive; + = active, no number. % is scaled to controls: 0 for no effect and ±100 for the full control effect. The list is partial; the hit share may differ from the screen's.

no.	mol	Methyltransferases
1	COc1ccc(-c2cc3n(n2)CC(C)(C(=O)NCc2ccccc2)N(c2cccc(C)c2C)C3=O)cc1 (stereo unspecified)	i
2	CCCCN1C(=O)c2cc(C(=O)Nc3cc(Cl)c(OC)cc3OC)nn2CC1(C)C(=O)NC1CCCC1 (stereo unspecified)	i
3	CC1(C)SC2C(NC(=O)[C@H](NC(=O)N3CCNC3=O)c3ccccc3)C(=O)N2C1C(=O)O (stereo partly specified)	i
4	CC1c2cccn2CCN1C(=O)Nc1ccc(Br)cc1F (stereo unspecified)	i
5	CCCn1c(=O)c2ccc(C(=O)NC(C)C)cc2n2c(=O)n(CC(=O)NC3CCCC3)nc12	i
6	CC(C(=O)N1CCc2onc(-c3ccc(F)c(F)c3)c2C1)n1ccnc1 (stereo unspecified)	i
7	O=C([C@@H]1C[C@H](F)CN1S(=O)(=O)Cc1ccccc1Cl)N1CCCCC1	i
8	CC(C)CCNC(=O)C1(C)Cn2c(ccc2-c2ccco2)C(=O)N1Cc1ccccc1F (stereo unspecified)	i
9	Cc1nonc1Cc1nc(C2CCOCC2)nn1CC1COCCO1 (stereo unspecified)	i
10	CCOC(=O)c1cc2n(n1)CC(C)(C(=O)NCCC(C)C)N(Cc1ccc(OC(C)C)cc1)C2=O (stereo unspecified)	i
11	COCCCNc1nc2c(S(=O)(=O)c3ccccc3)nnn2c2ccc(Cl)cc12	i
12	CC1(C(=O)NCc2ccccc2)Cn2c(cc3ccccc32)C(=O)N1Cc1ccc(Cl)cc1 (stereo unspecified)	i
13	COc1cccc(-c2ccc(C(=O)N3CCC(NC(=O)c4ccc(C(F)(F)F)cc4)CC3)cc2)c1	i
14	Fc1ccc(C2CCNC[C@H]2COc2ccc3c(c2)OCO3)cc1 (stereo partly specified)	?
15	CCCN1C(=O)c2c(C(=O)NCCN3CCOCC3)ncn2CC1(C)C(=O)NCc1ccc(C)cc1 (stereo unspecified)	i
16	Cn1ncc2c(C(=O)NC3CCCCCC3)cc(C(C)(C)C)nc21	i
17	CCn1ccc2oc(C)c(C(=O)N3CCN(c4cccc(C)c4C)CC3)c2c1=O	i
18	COc1ccc(CCC(=O)N2CCC3(CC2)CC(C(=O)N2CCOCC2)N(C)C3)cc1 (stereo unspecified)	i
19	Cn1cc(CN2C[C@H](C(=O)Nc3ccn(C)n3)C[C@@H]2c2cccc(C(F)(F)F)c2)cn1	i
20	CCc1cc2c(cc3n2CC(C)(C(=O)NC2CCCCCC2)N(c2cccc(Cl)c2C)C3=O)s1 (stereo unspecified)	i
21	Cc1nc(N2CCN(C(=O)C(C)Oc3ccccc3)CC2)cc(C(F)(F)F)n1 (stereo unspecified)	i
22	Cc1cccc(C)c1OCC(N)C(C)C (stereo unspecified)	i
23	O=C(c1ccncc1)N1CC(Oc2ccc(-c3noc(-c4ccccc4)n3)cc2)C1	i
24	O=C(c1ccc2cc[nH]c2c1)N1CCCC(Cc2noc(-c3ccccn3)n2)C1 (stereo unspecified)	i
25	COc1ncccc1-c1cc(-c2c(C)noc2C)c2cncn2c1	i
26	CCCn1c(=O)c2ccc(C(=O)NCC(C)C)cc2n2c(=O)n(Cc3ccc(F)cc3Cl)nc12	i
27	CCN(CC)C(C)CN1c2ccccc2Sc2ccccc21 (stereo unspecified)	i
28	CCCOc1ccn2c(C(C)=O)cc(-c3ccccc3S(C)(=O)=O)c2c1	?
29	C=C1C(=O)OC2/C=C(\CO)CC/C=C(\C=O)C(O)C(OC(=O)C(C)CC)C12 (stereo unspecified)	?
30	CCOC(=O)c1cc2n(n1)CC(C)(C(=O)NCc1ccccc1OC)N(CCc1ccc(SC)cc1)C2=O (stereo unspecified)	i
31	CCN1C(=O)c2cc3ccccc3n2CC1(C)C(=O)NCC(=O)NCc1ccc(F)cc1 (stereo unspecified)	i
32	CCCn1c(=O)c2ccc(C(=O)NC(C)C)cc2n2c(=O)n(Cc3cc(C)ccc3C)nc12	i
33	CC(C)=CC1C[C@](C)(O)[C@@H]2[C@H]3CCC4[C@@]5(C)CC[C@H](O[C@@H]6OC[C@H](O)[C@H](O[C@@H]7O[C@H](CO[C@@H]8O[C@H](CO)[C@@H](O)[C@H](O)[C@H]8O)[C@@H](O)[C@H](O)[C@H]7O)[C@H]6O[C@@H]6O[C@@H](C)[C@H](O)[C@@H](O)[C@H]6O)C(C)(C)[C@@H]5CC[C@@]4(C)[C@@]34CO[C@@]2(C4)O1 (stereo partly specified)	i
34	CCC(C)NC(=O)c1ccc2c(=O)n(C(C)C)c3nn(C)c(=O)n3c2c1 (stereo unspecified)	i
35	O=C(O)C1CN(CCCP(=O)(O)O)CCN1 (stereo unspecified)	i
36	O=C(CC1CCOC2(CCN(Cc3cccs3)CC2)C1)NC1CC1 (stereo unspecified)	i
37	CC1(C(=O)NC2CCCC2)Cn2c(c(-n3cccc3)c3ccccc32)C(=O)N1Cc1ccccn1 (stereo unspecified)	?
38	CN(CCCN1C(=O)c2cc3occc3n2CC1(C)C(=O)NC1CCCCC1)Cc1ccccc1 (stereo unspecified)	i
39	CC1CCCN1C(=O)c1cc(-c2cnn(C(C)C)c2)nc2cc(F)ccc12 (stereo unspecified)	i
40	CCCn1c(=O)c2ccc(C(=O)NC(C)CC)cc2n2c(SCC(=O)Nc3ccc(C)cc3C)nnc12 (stereo unspecified)	i
41	Cc1cccc(N2C(=O)c3cc4sccc4n3CC2(C)C(=O)NC2CCCCCC2)c1C (stereo unspecified)	i
42	CC(C)Oc1ccc(CN2C(=O)c3cc4sccc4n3CC2(C)C(=O)NC2CCCCCC2)cc1 (stereo unspecified)	i
43	CC(C)NC(=O)N1CCC2(CC1)CN(C(=O)Cc1c[nH]c3ccccc13)CCO2	i
44	CCCc1cc2c(N3CCN(C4=NCC(C)(C)S4)CC3)ncnc2s1	+
45	COc1ccc(CN2C(=O)c3cc4occc4n3CC2(C)C(=O)NC2CCC(C)CC2)cc1 (stereo unspecified)	i
46	Cc1cc2c(cc3n2CC(C)(C(=O)NC2CCCCCC2)N(CCN2CCN(C)CC2)C3=O)o1 (stereo unspecified)	i
47	CCn1ccnc1CN(C)C(=O)c1cc(COc2ccccc2F)[nH]n1	i
48	O=C(Cc1ccsc1)N1CCC2(CC1)N=C(c1ccccc1)NO2	i
49	C[C@]12CC[C@@H]3c4ccc(O[C@@H]5O[C@H](C(=O)O)[C@@H](O)[C@H](O)[C@H]5O)cc4CC[C@H]3[C@@H]1CCC2=O	i
50	C[C@H](NC(=O)C(C)(C)Oc1ccc(C(F)(F)F)cn1)[C@@H](Cc1ccc(Cl)cc1)c1cccc(C#N)c1	?
51	CN1CC[C@H]2CN(C(=O)c3scc4c3OCCO4)C[C@@]2(C(=O)O)C1	i
52	O=C1N(Cc2ccc(F)c(F)c2)CCCC12CCN(c1nc3ccccc3o1)C2 (stereo unspecified)	i
53	CCC1(C(=O)NCCN2CCOCC2)CCCCC(=O)N1 (stereo unspecified)	i
54	COc1ccc(Cl)cc1NC(=O)N1CCn2cccc2C1Cc1ccccc1 (stereo unspecified)	i
55	CNC(=O)C1(N2CCC[C@H]2C(=O)N(C)CCN(C)C)CCC1	i
56	CCN1C(=O)c2cc(C(=O)Nc3ccccc3C)nn2CC1(C)C(=O)NC1CCCC1 (stereo unspecified)	i
57	CC1CCCC(NC(=O)C2(C)Cn3c(ccc3-c3ccco3)C(=O)N2CCc2ccccc2)C1C (stereo unspecified)	i
58	COCc1noc(CCNC(=O)C2CC3(CCNCC3)CN2)n1 (stereo unspecified)	i
59	COc1ccc(Cl)cc1S(=O)(=O)NC1COc2c(cccc2OC)C1 (stereo unspecified)	i
60	O=C([C@H]1O[C@H](CCN2CCC(CO)CC2)CC[C@@H]1O)N1CCN(c2ccccc2)CC1	i

(more compounds)
no.	mol	Methyltransferases
61	O=C(CN1CC2CC(C1)[C@H]1CCCC(=O)N1C2)N1CCSCC1 (stereo partly specified)	i
62	O=C(Cn1c(=O)oc2cc(S(=O)(=O)N3CCCC3)ccc21)Nc1ccc(Cl)cc1F	i
63	CCCCOc1nc(N)c2c(n1)N(Cc1cccc(CN3CCCC3)c1)CC(=O)N2	?
64	O=C(Cn1c(=O)oc2cc(S(=O)(=O)NCc3ccccc3)ccc21)NCCCc1ccccc1	i
65	CCCn1c(=O)c2cc(Cl)ccc2n2c(SCC(=O)NCc3ccccc3Cl)nnc12	i
66	CC(C)CCn1c(=O)c2ccccc2n2c(=O)n(Cc3ccccc3Cl)nc12	i
67	COc1ccccc1OC1(C(=O)O)CCN(C(=O)CC2CC2)CC1	i
68	O=C(CCn1ccc2cc(S(=O)(=O)N3CCCC3)ccc21)NCc1cccc(Cl)c1	i
69	O=c1c2ccccc2n2c(=O)n(Cc3cccc(Cl)c3)nc2n1Cc1ccccc1	i
70	O=C1CCC2(CNC(=O)c3cccnc3)CCCC=C2N1 (stereo unspecified)	i
71	COC1CCC12CCN(Cc1ccc(F)c(F)c1)CC2 (stereo unspecified)	i
72	COCCCNC(=O)C1(C)Cn2nc(-c3ccccc3)cc2C(=O)N1c1ccc(C)cc1 (stereo unspecified)	i
73	Cc1ccc(NC(=O)c2cc3c(s2)CN(C2CC2)C3)cc1	i
74	CC(C)OCCCn1c(=O)c2ccccc2n2c(-c3ccc(F)c(F)c3)nnc12	i
75	CCN[C@@H]1C[C@H](N)[C@@H](O[C@H]2OC(CN)=CC[C@H]2N)[C@H](O)[C@H]1O[C@H]1OC[C@](C)(O)[C@H](NC)[C@H]1O	i
76	CCCn1c(=O)c2ccc(C(=O)NCC(C)C)cc2n2c(=O)n(Cc3ccc(F)cc3)nc12	i
77	Cc1nc(Nc2cnn(C3CCNCC3)c2)nc2c1N(C)C(=O)c1cc3ccccc3cc1N2C	?
78	CCC(Cc1ccccc1)NC(=O)Cn1c(=O)oc2cc(S(=O)(=O)NCc3ccccc3)ccc21 (stereo unspecified)	i
79	CCOc1ccc(C(=O)Cn2nc3n(C(C)C)c(=O)c4ccc(C(=O)NC5CCCC5)cc4n3c2=O)cc1	i
80	CC1(C(=O)NC2CCCCCCC2)Cn2c(ccc2-c2ccco2)C(=O)N1CCCN1CCOCC1 (stereo unspecified)	i
81	CCN(CCCNC(=O)CCCc1nnc2n3nc(C)nc3c3ccccc3n12)c1cccc(C)c1	i
82	CC(=O)N1CCC2(C1)N=C(c1ccccn1)C(=O)N2 (stereo unspecified)	i
83	O=C1CC2CCN([S+](=O)([O-])c3cccs3)CC2CCN1 (stereo unspecified)	i
84	Cc1ccc(NC(=O)Cn2c(=O)oc3cc(S(=O)(=O)N4CCCC4)ccc32)c(Br)c1	i
85	COc1cccc(CN2C(=O)c3cc4ccc(OC)cc4n3CC2(C)C(=O)NC2CCCC2)c1 (stereo unspecified)	i
86	O=C(NCc1ccc(F)cc1)c1nc2sccn2c1Br	i
87	CC(C)C[C@@H](N)C(=O)N[C@H]1C(=O)N[C@@H](CC(N)=O)C(=O)N[C@H]2C(=O)N[C@H]3C(=O)N[C@H](C(=O)N[C@H](C(=O)O)c4cc(O)cc(O)c4-c4cc3ccc4O)[C@H](O)c3ccc(c(Cl)c3)Oc3cc2cc(c3O[C@@H]2O[C@H](CO)[C@@H](O)[C@H](O)[C@H]2O[C@H]2C[C@](C)(N)[C@H](O)[C@H](C)O2)Oc2ccc(cc2Cl)[C@H]1O	i
88	COCCNC(=O)NC[C@H]1O[C@@H]2C[C@@H](CC(=O)N3CCC(F)(F)C3)O[C@@H]2[C@@H]1O	i
89	COc1cc(C(O)C2COC(c3ccc(OC4OC(CO)C(O)C(O)C4O)c(OC)c3)C2CO)ccc1O (stereo unspecified)	i
90	CC1(C(=O)NC2CCCCCC2)Cn2c(cc3sccc32)C(=O)N1c1cccc(F)c1 (stereo unspecified)	i
91	CCOc1ccc(CN2C(=O)c3nc4ccccc4n3CC2(C)C(=O)NC2CCCC(C)C2C)cc1 (stereo unspecified)	i
92	Cc1cc(Cl)ccc1N1C(=O)c2cc(C(C)(C)C)nn2CC1(C)C(=O)NCc1ccccc1 (stereo unspecified)	i
93	CC1(C)[C@@H](O)CC[C@]2(C)[C@H]3C(=O)C=C4[C@@H]5C[C@@](C)(C(=O)O)CC[C@]5(C)CC[C@@]4(C)[C@]3(C)CC[C@@H]12	?
94	O=C(Cn1nc2n(CCc3ccccc3)c(=O)c3ccccc3n2c1=O)Nc1ccc(F)cc1	i
95	COc1nc2nc(CC3CC3)n(C)c2cc1-c1ccc(O)c(F)c1	?
96	COc1ccc(CCCN2C(=O)O[C@@H]3CN(S(=O)(=O)N(C)C)C[C@@H]32)cc1	i
97	COc1cccc(CNC(=O)[C@@H]2C[C@@H](O)CN2C2CCN(C(=O)Cc3c[nH]c4ccccc34)CC2)c1	i
98	CCCn1c(=O)c2ccc(C(=O)NC3CCCCC3)cc2n2c(=O)n(Cc3cccc(Cl)c3)nc12	i

Assay outcomes (PubChem)
